High-throughput results from PubChem BioAssay.
KCNQ2 pot: potentiators of rat KCNQ2 potassium channel; Potassium voltage-gated channel subfamily KQT member 2 (Rattus norvegicus), O88943; CHO-K1 KCNQ2, FluxOR thallium flux fluorescence; stronger effect = higher value; B-score at 10 µM; 310,000 tested, 0.54% active; AID 2239, 2010;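 active = fluorescence ratio B-score at least 3 SD of library B-scores, with initial fluorescence B-score within 3 SD, cut at about 5.3 in these data; same plate scores as AID 2156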;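 note: B-score of peak minus minimum over baseline fluorescence ratio after K+ and Tl+ stimulus; positive B-score means potentiation of KCNQ2 with more thallium influx and brighter signal; only the inactives scoring about 0 or higher are listed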
Target sequence (O88943 whole entry, looked up): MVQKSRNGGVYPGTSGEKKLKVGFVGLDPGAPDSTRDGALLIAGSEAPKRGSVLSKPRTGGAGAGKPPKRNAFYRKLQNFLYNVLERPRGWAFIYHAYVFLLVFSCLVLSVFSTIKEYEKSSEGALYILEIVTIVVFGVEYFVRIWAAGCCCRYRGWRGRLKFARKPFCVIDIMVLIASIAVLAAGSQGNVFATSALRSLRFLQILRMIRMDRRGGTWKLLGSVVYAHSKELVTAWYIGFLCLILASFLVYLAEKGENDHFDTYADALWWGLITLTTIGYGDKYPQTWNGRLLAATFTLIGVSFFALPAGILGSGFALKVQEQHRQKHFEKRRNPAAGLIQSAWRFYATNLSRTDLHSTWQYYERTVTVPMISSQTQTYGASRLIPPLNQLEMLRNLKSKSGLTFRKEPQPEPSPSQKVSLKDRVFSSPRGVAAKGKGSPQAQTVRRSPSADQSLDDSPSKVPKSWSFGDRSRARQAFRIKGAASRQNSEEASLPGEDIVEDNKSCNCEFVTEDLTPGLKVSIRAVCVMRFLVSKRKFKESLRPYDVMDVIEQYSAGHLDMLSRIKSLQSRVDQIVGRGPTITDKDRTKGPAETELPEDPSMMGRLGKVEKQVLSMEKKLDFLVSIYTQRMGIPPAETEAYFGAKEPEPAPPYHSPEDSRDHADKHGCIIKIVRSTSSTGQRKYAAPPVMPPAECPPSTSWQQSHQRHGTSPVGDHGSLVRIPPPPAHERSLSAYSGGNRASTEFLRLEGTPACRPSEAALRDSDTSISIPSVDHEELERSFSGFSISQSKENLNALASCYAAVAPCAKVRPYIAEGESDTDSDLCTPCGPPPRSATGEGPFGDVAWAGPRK
KCNQ2 pot baseline: recorded beside KCNQ2 pot, whose call it bears; B-score; compound at 10 µM; measured here: initial fluorescence intensity artifact check;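 brightness before thallium and not channel activity; 0 = typical well and far values either way flag optical interference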
Starred values were filed as active, the others as inactive. Only part of the results is shown; count on the stated rates, not on these rows.

KCNQ2 pot | KCNQ2 pot baseline | Compound
0.44 | -3.1 | O=C1c2ccccc2C(=O)c2c(NCCCN(CCO)CCO)cccc21
0.98 | -1.3 | Cc1ccc(CNC(=O)c2ccc(C)s2)cc1
1.3 | -0.92 | C/C(=N\NC(=O)CCCNc1cccc(C)c1)c1ccncc1
1.1 | 0.34 | COc1nccnc1NS(=O)(=O)c1ccc(N)cc1
0.63 | 2.2 | CCN(C(=O)COC(=O)C(Cc1ccccc1)N1C(=O)c2ccccc2C1=O)C1CCS(=O)(=O)C1 (stereo not drawn)
0.02 | -1.2 | O=C(Nc1cccc(C(F)(F)F)c1)c1sc(Cl)nc1C(F)(F)F
1.3 | 0.07 | c1ccc(Cn2nnc3cnccc32)cc1
0.44 | -0.36 | C/C(=N/NS(=O)(=O)c1ccccc1)c1ccc(NC(=O)C2CC2)cc1

Next part (6 carried over from the part before).
KCNQ2 pot | KCNQ2 pot baseline | Compound
1.3 | -0.92 | C/C(=N\NC(=O)CCCNc1cccc(C)c1)c1ccncc1
1.1 | 0.34 | COc1nccnc1NS(=O)(=O)c1ccc(N)cc1
0.63 | 2.2 | CCN(C(=O)COC(=O)C(Cc1ccccc1)N1C(=O)c2ccccc2C1=O)C1CCS(=O)(=O)C1 (stereo not drawn)
0.02 | -1.2 | O=C(Nc1cccc(C(F)(F)F)c1)c1sc(Cl)nc1C(F)(F)F
1.3 | 0.07 | c1ccc(Cn2nnc3cnccc32)cc1
0.44 | -0.36 | C/C(=N/NS(=O)(=O)c1ccccc1)c1ccc(NC(=O)C2CC2)cc1
1 | -2.2 | CCc1cc(=O)n2c([nH]c3ccccc32)c1C#N
0.49 | 0.04 | Cc1n[nH]c(=O)c2c(NC(=O)COC(=O)Cc3c(F)cccc3Cl)oc(C)c12
0.14 | -0.1 | CSc1nc2ccccc2cc1/C=C(\C#N)c1ccc(Cl)c(Cl)c1
0.95 | 0.83 | Cc1ccc(CNC(=O)CCCn2c(=O)c3ccccc3n(CC(=O)NCc3ccco3)c2=O)cc1
0.74 | -0.28 | CC(=O)c1cccc(NC(=O)c2sc(Cl)nc2C)c1
2.7 | 0.19 | COC(=O)c1ccc(CON2C(=O)c3ccccc3C2=O)cc1
0.38 | -1.8 | COc1ccc(C(=O)CC(=O)c2ccccc2)cc1
1.9 | -1.4 | O=C(Nc1ccc(F)c(Cl)c1)C1CC(=O)n2c(nc3ccccc32)N1 (stereo not drawn)
0.45 | 0.73 | COc1cccc(NC(=O)C2C3C=CC(O3)C2C(=O)NCc2cccnc2)c1 (stereo not drawn)
0.1 | -0.95 | c1ccc2c(c1)OCc1cn[nH]c1-2
0.6 | -1.7 | CC(=O)c1ccc(NC(=O)CSc2ccc(-c3sc(C)nc3C)nn2)cc1
1.9 | -0.02 | Cc1cc(/C=N/NC(=O)CC2(C)OCCO2)c(C)n1-c1cc(Cl)cc(Cl)c1
0.01 | 0.63 | C[C@@H]1C=C(C(=O)N2CCN(C)CC2)O[C@H](OCc2ccc(CO)cc2)C1
1.6 | -0.14 | Cn1c(SCC(=O)Nc2ccc(Br)cc2F)nnc1-c1ccco1
0.14 | -1.6 | COc1ccc(C2(CNC(=O)c3cccc([N+](=O)[O-])c3)CCOCC2)cc1
0.4 | -2.3 | COC(=O)C1[C@H]2C(=O)N(Cc3cccs3)C[C@]23C=C[C@H]1O3 (stereo partly drawn)
1 | -1.8 | COC(=O)c1nc2ccccn2c1F
1.3 | 0.23 | CC(C)(C)NC(=O)C(c1ccccn1)N(C(=O)C1CSC(=O)C1)c1ccc(F)cc1 (stereo not drawn)
1.9 | -2.2 | Cc1ccc(N2CC(C(=O)NCc3n[nH]c(=O)c4ccccc34)CC2=O)cc1 (stereo not drawn)
2.4 | -0.41 | CCOC(=O)C1CC=C(Cl)CC1C(=O)Nc1nccs1 (stereo not drawn)
2 | -0.01 | Cc1ccc(Nc2ncnc(N)n2)cc1C
0.03 | -0.64 | CSc1ncc(C(=O)O)n1-c1ccc(F)cc1
0.05 | 0.02 | Cc1nc(CSc2nsc(C)c2C#N)cs1
1.5 | -0.05 | COc1ccc(C2=NOC(C(=O)NC3CCCCC3)C2)cc1OC (stereo not drawn)
1.7 | -0.29 | Cc1ccc(S(=O)(=O)N2CCCCC2)c(C)c1NS(C)(=O)=O
0.78 | -0.85 | CC(=O)N1CN(C2CC(C)(C)NC(C)(C)C2)Cc2c1sc1c2CCCC1
0.07 | 1.8 | O=C(Nc1cc(C(F)(F)F)ccc1Cl)C(=O)N1CCCCC1
0.63 | 0.34 | Brc1ccc(-c2nc3ccccc3s2)s1
0.14 | -0.88 | CC(C)(C)C(=O)NC(=S)N1CCOCC1
0.34 | 0.37 | Cn1nccc1C(=O)N1CCCC(C(=O)c2ccc(Oc3ccccc3)cc2)C1 (stereo not drawn)
0.23 | 0.22 | Cc1cccc(N2CCN(C(=O)C3CCCN(S(=O)(=O)c4cnc[nH]4)C3)CC2C)c1 (stereo not drawn)
0.27 | -0.64 | CCOc1ccc(NC(=S)Nc2cccc3ccccc23)cc1

Full records, quoted from the list. Values in the order: KCNQ2 pot, KCNQ2 pot baseline
`CC(=O)N1CN(C2CC(C)(C)NC(C)(C)C2)Cc2c1sc1c2CCCC1` reads 0.78, -0.85
`O=C(Nc1cc(C(F)(F)F)ccc1Cl)C(=O)N1CCCCC1` reads 0.07, 1.8
`Brc1ccc(-c2nc3ccccc3s2)s1` reads 0.63, 0.34
`Cc1cccc(N2CCN(C(=O)C3CCCN(S(=O)(=O)c4cnc[nH]4)C3)CC2C)c1` (stereo not drawn) reads 0.23, 0.22
`CC(C)(C)C(=O)NC(=S)N1CCOCC1` reads 0.14, -0.88

(further entries)
KCNQ2 pot | KCNQ2 pot baseline | Compound
0.55 | 0.03 | Cc1cc(C)cc(C(=O)N2CCC3(CC2)NCCc2[nH]cnc23)c1
0.28 | -0.91 | CN(C)S(=O)(=O)c1ccc2c(c1)nc(CCC(=O)NCC1CCCCC1)n2C
1.6 | 1.4 | COC(=O)c1ccc(CSc2ncnc3sc(C)c(C)c23)o1
0.84 | -0.04 | COc1ccc(C(=O)Nc2ccccc2C(=O)O)cc1Cl
0.08 | 0.99 | O=C(CSc1nc(O)c(C2CCCCC2)c(=O)[nH]1)Nc1ccccc1Cl
0.44 | -0.02 | CN1CCN(S(=O)(=O)c2cccc(C(=O)Nc3ccccc3N3CCOCC3)c2)CC1
0.05 | 2.2 | COc1cc(NC(=O)COc2cccc(C)c2C)ccc1NC(=O)c1ccco1
1.4 | -0.85 | CN(C)c1cccc2c1c(NS(=O)(=O)c1cn(C)cn1)nn2C
0.3 | -1.6 | CN(C(=O)Cn1c(=O)oc2cc(S(=O)(=O)N3CCCC3)ccc21)C1CCCCC1
0.98 | 3.4 | Cc1ccc(C(=O)Nc2cccc(-c3cn4ccccc4n3)c2)cc1
0.62 | -2.1 | COC(=O)c1cccc(Cn2c(Cl)c(/C=N/Nc3ccccc3C)sc2=O)c1
0.48 | -0.81 | CCOC(=O)c1cccc(S(=O)(=O)N2CCCC2)c1
2.2 | -0.87 | CCNC(=S)N(CCc1c(C)[nH]c2ccc(F)cc12)Cc1cccnc1
1.8 | 0.16 | CC1CCc2c(sc3ncnc(SCC(=O)c4ccccc4)c23)C1 (stereo not drawn)
1.2 | -0.4 | C=CCNc1nc(-c2ccccc2)c(C(=O)OCC)cc1C#N
0.29 | 0.07 | O=C(NCCN1CCCCC1)Nc1cccc(C(F)(F)F)c1
0.84 | -1.9 | O=C(NNC(=O)c1cc2ccccc2cc1O)NC1CCCCC1
1.1 | 0.86 | CCOC(=O)c1ccc(NC(=S)N2CCN(CCN=CC3=C(O)CC(C)(C)CC3=O)CC2)cc1
0.75 | 0.45 | CN(C)C1(CNC(=S)Nc2ccccc2C(F)(F)F)CCCCC1
1.2 | -1.1 | Cc1nc(Cl)cc(N/N=C/c2ccccc2)n1
0.56 | 2 | COc1ccc(C(=O)Nc2nnc(CC(=O)N/N=C/c3ccc(O)cc3O)s2)cc1
1.6 | -0.21 | CN(C)c1ccc(/C=N/NC(=O)c2ccccc2)cc1
0.4 | -1.8 | O=C(c1ccco1)N1CCN(c2ccc([N+](=O)[O-])c(N3CCOCC3)c2)CC1
1.2 | -0.13 | Cc1cccc(NC(=O)CSc2nnc(-c3ccccc3)n2N)c1
0.89 | 0.39 | CCC(Sc1nc(N)cc(=O)[nH]1)C(=O)Nc1cc(C)on1 (stereo not drawn)
0.51 | -0.65 | COC(=O)c1ccc(Cn2nc([N+](=O)[O-])c(Br)c2C)cc1
0.09 | -0.94 | COc1ccccc1S(=O)(=O)N1CCC(C(=O)O)(c2ccccc2)CC1
1.5 | -1.7 | CC(=O)c1ccc(S(=O)(=O)Oc2ccc(-c3ccc(C(=O)O)cc3)cc2)cc1
1.1 | 0.18 | COCCNC(=O)c1ccc2c(c1)C(=O)c1ccccc1-2
0.89 | -0.02 | CCC(C(=O)O)N1C(=O)C2CCCCC2C1=O (stereo not drawn)
1.2 | -0.87 | COc1ccc(-c2nc(SCC(=O)NC3CCCC3)c(-c3ccc(OC)cc3)[nH]2)cc1
0.03 | 2.4 | O=c1[nH]cc(N(CCO)CCO)c(=O)[nH]1
0.1 | -0.01 | Cc1ccc2nc(N(CCCN(C)C)C(=O)CN3C(=O)c4ccccc4C3=O)sc2c1
0.2 | -0.39 | CC(Cl)C(=O)Nc1ncc(C(F)(F)F)cc1Cl (stereo not drawn)
0.67 | 0.01 | COc1cccc(NC(=O)CSc2nnc(-c3cccs3)n2C)c1
0.9 | 0.12 | Oc1c(C(c2cccs2)N2CCOCC2)sc2ncnn12 (stereo not drawn)
0.61 | -0.67 | CCC(C(=O)NCCc1ccc(S(N)(=O)=O)cc1)c1ccccc1 (stereo not drawn)
0.6 | -1 | COc1ccc(N2CCN(C(=O)Cc3ccc(OC)c(OC)c3)CC2)cc1
1.1 | 0.43 | O=C(Cc1coc(-c2ccc(F)cc2)n1)NC1CCCCC1
0.59 | 0.21 | COc1cc(CNCCCN2CCOCC2)ccc1OCC(=O)NC(C)(C)C
0.66 | 1.7 | CCCN(CCC)CC(O)CN(c1cc([N+](=O)[O-])ccc1OC)S(=O)(=O)c1ccccc1 (stereo not drawn)
0.53 | 0.03 | CC(=O)Nc1ccc(S(=O)(=O)NCCS(=O)(=O)N2CCN(c3ccccc3)CC2)cc1
2.1 | 0.31 | COc1cc(OC)c(/C=N/NC(=O)c2ccc(NC(C)=O)cc2)cc1Br
0.81 | -2.1 | CCOC(=O)C(CC(=O)O)N1CCCCC1 (stereo not drawn)
0.11 | 0.08 | COc1cccc(S(=O)(=O)NCc2ccc3c(c2)OCO3)c1
0.32 | -0.91 | COc1ccccc1NC(=O)c1sc2nc(-c3ccco3)ccc2c1N
0.23 | -1 | Cc1ccc(NC(=O)COC(=O)CNC(=O)c2ccc(C)s2)cc1
1.6 | 0.39 | Cc1cc(C)cc(OCC(=O)Nc2cc(C)on2)c1
1.8 | 1.1 | CCOC(=O)C1CCN(C(=O)c2ccc3c(c2)C(=O)N(c2ccccc2C)C3=O)CC1
1 | 1 | CCOC(=O)c1c(C)[nH]c(C)c1C(=O)CSc1nc2ccccc2[nH]1
2.3 | -2.7 | Cc1ccc(C(=O)Nc2cccc3ncccc23)cc1[N+](=O)[O-]
0.94 | -0.64 | CCn1c(SCc2nc3ccccc3[nH]2)nnc1-c1cccnc1
0.98 | 1.1 | CCOC(=O)c1c(C)[nH]c(C(=O)CN2C(=O)NC(C)(c3ccc4ccccc4c3)C2=O)c1C (stereo not drawn)
0.03 | -0.32 | COc1ccccc1C(=O)NCCC(=O)Nc1ncccc1O
0.73 | -0.01 | CCN(CC)CCN(C(=O)c1ccc(CN2CCCCC2)o1)C(C(=O)NC1CCCCC1)c1ccc(F)cc1 (stereo not drawn)
0.96 | 2.4 | Cc1ccc(S(=O)(=O)c2ccc(C)cc2)cc1

Next section:
KCNQ2 pot | KCNQ2 pot baseline | Compound
1.6 | -0.64 | Nc1ccc(Cl)c(S(=O)(=O)Nc2ccccc2Cl)c1
0.2 | -1.2 | O=C(CSCCO)Nc1cccc([N+](=O)[O-])c1
1.2 | -1.2 | FC(F)(F)c1cccc(NC(=S)Nc2cccc(NC(=S)Nc3cccc(C(F)(F)F)c3)n2)c1
0.77 | 0.03 | CC(=O)c1ccc(S(=O)(=O)N2CCCC(N(C)CCc3ccccn3)C2)cc1 (stereo not drawn)
1.8 | 0.81 | COc1ccc(C)cc1-n1[nH]nnc1=S
0.94 | -0.03 | COc1ccc(Cl)cc1N1C(=NC(=O)C2CCCCC2)SC2CS(=O)(=O)CC21 (stereo not drawn)
1.3 | -0.73 | CC(C)Oc1ccc(N2CC(C(=O)Nc3ccc4c(c3)OCO4)CC2=O)cc1 (stereo not drawn)
2.3 | 0.56 | Cc1c(OCC(=O)NC(Cc2ccc(Cl)cc2)C(=O)O)ccc2c(-c3ccccc3)cc(=O)oc12 (stereo not drawn)
0.02 | 1.8 | O=C(Nc1ccc(Cl)cc1)C1C2C=CC3(O2)C1C(=O)N(CCCN1CCCCC1)C3C(=O)NC1CCCCC1 (stereo not drawn)
1 | 1.2 | Cc1nn(-c2ccccc2)c(C)c1/C=N/NC(=O)c1ccc(F)cc1
1.1 | -0.29 | O=C(CSCc1nc2ccccc2[nH]1)N1CCN(c2cccc(Cl)c2)CC1
2 | -1.6 | Cc1cc(C)nc(NS(=O)(=O)c2ccc(NC(=O)c3cc(=O)c4ccccc4o3)cc2)n1
0.79 | -1 | CCC(SCC(=O)OC)C(=O)Nc1nnc(C(C)C)s1 (stereo not drawn)
1.7 | 1.7 | Nc1cc(=O)[nH]c(SCC(=O)Nc2cccc(Cl)c2)n1
1.2 | -0.86 | N#C/C(=N\Nc1ccc(Cl)cc1)C(=O)c1ccccc1
0.71 | -0.32 | COC(=O)c1cc(S(=O)(=O)N2CCN(c3cccc(C)c3C)CC2)c[nH]1
0.01 | 2.4 | O=C1CCCc2c1[nH]c1c(Br)cccc21
2 | -0.52 | Cn1cc(NC(=O)OCc2ccc(Cl)cc2)c(C(F)(F)F)n1
0.05 | 1.8 | C=CCn1cc(Cl)c(=O)n(CC=C)c1=O
0.01 | -0.79 | Cn1c(CCN2CCCCC2)nc2cc(NC(=O)NC3CCCCC3)ccc21
